# Assay outcomes: PubChem BioAssay, several laboratories
# INS promoter inh = inhibitors of insulin promoter-driven GFP, primary screen, imaging, TRM-6 cells (human fetal islet line), eGFP reporter, cell count; actives 0.9% (n = 130,000); reporter expression induced with tamoxifen; inhibition, % at 2 µM;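 active = inhibition above the mean plus 3 SD, with well images judged a real hit on visual review, cut at about 60% in these data, passing the limit was not always enough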
# PKD1 inh = inhibitors of human PKD1 kinase, biochemical, fluorescence polarization | PKD1 kinase fluorescence polarization assay | AID 797, 2007 | Serine/threonine-protein kinase D1 (Homo sapiens), Q15139 | actives 0.056% (n = 200,000) | inhibition, %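 (about 10 µM by stock and volumes)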;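 active = inhibition of 50% or more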;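 also: controls were vehicle for no effect and a reference inhibitor for full effect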
# GALR2 ag = GALR2 receptor agonists, primary screen, cell-based; Galanin receptor type 2 (Homo sapiens), O43603; GALR2-expressing cells, agonist activation read-out; activation, %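 (tested at 5 µM)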; actives 0.48% (n = 140,000);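 active = above mean plus 3 SD of all compounds, about 5% in these data, not always enough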;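 also: 0% = vehicle buffer wells and 100% = reference agonist at full effect; tested in CHO reporter cells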
# Target sequence (O43603 whole entry, looked up): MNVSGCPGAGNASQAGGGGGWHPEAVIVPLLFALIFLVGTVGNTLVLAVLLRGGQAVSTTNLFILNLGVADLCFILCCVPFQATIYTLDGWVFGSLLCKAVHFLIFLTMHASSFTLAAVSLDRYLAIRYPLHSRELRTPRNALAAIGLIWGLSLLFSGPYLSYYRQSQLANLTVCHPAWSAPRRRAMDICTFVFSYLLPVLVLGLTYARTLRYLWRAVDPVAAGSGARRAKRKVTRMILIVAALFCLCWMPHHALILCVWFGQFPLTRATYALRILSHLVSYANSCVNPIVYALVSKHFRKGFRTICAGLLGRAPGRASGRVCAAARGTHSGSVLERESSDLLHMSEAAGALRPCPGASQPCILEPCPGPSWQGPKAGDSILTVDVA
# HSV replic up = enhancers of HSV replication in host cells, fold increase, host cell viability; HSV replication augmentation in cells; maximum fold increase; actives 0.005% (n = 220,000);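 active = peak rise of 1.5-fold or more in the series; tested in PC3 cells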;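 also: first round at 10 µM; read as green reporter fluorescence; hits show the peak of a series up to 25 µM; 1 = signal of infected wells without compound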
# RGS16-Gao HTS = modulators of RGS16 binding to Galphao, primary screen, biochemical, human proteins, multiplexed bead flow cytometry; Regulator of G-protein signaling 16 (Homo sapiens) + Guanine nucleotide-binding protein …; bead-based flow cytometry RGS16-Galphao binding, fluorescence; actives lie on both sides; binding response (% of control), % at 10 µM; actives 0.38% (n = 220,000); AID 1441, 2008;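 active = below 25% or above 175%, edge rows of some plates excepted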;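 also: Galphao activated by GDP with aluminum fluoride before binding; 100% = wells without compound and 0% = beads without RGS; some results beyond the cut were filed as inactive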
# Target sequence (O15492 whole entry, looked up): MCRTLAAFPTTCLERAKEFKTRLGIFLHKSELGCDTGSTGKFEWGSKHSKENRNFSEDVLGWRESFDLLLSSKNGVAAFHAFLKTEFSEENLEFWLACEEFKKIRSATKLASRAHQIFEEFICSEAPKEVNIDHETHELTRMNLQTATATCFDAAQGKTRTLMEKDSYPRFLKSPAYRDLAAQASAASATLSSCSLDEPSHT
# Target sequence (P09471 whole entry, looked up): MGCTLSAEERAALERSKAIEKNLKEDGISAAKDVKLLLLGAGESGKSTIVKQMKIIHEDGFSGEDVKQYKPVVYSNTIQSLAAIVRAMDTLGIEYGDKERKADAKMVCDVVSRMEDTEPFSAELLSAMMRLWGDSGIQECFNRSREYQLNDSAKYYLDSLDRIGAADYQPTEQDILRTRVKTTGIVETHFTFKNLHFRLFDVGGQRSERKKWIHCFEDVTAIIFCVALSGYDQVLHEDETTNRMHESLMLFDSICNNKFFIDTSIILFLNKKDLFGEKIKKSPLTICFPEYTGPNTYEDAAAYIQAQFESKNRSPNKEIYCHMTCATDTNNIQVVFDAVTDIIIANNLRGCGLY
# INS promoter inh cell count = second read-out of INS promoter inh, no call of its own (marks repeat the call); normalized cell count, %; measured here: cell count, toxicity; reference of the scale not given here;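 cells exposed to compound for 48 h; stained nuclei by imaging scaled within each plate; lower means fewer cells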
# HSV replic up primary fold = further read-out of HSV replic up, marked with its call; fold increase; compound at 10 µM; measured here: primary screen fold increase 10 uM; tested in PC3 cells;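 GFP signal in the first replicate; 1 = infected wells without compound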
# * marks the source's active call; other numbers are inactive results; i = inactive; . = no result given.
mol	INS promoter inh	INS promoter inh cell count	PKD1 inh	GALR2 ag	HSV replic up	HSV replic up primary fold	RGS16-Gao HTS
CC(C)(C)CC(=O)NCc1cccs1	.	.	-2.4	.	i	0.97	93.9
Cc1ccc(N(CC(=O)Nc2ccccc2-c2ccccc2)S(=O)(=O)c2ccccc2)c(C)c1	-22.2	148.6	-16.6	-0.9	i	0.93	97.2
O=C(CSc1nnc(Nc2ccccc2)s1)NCCN1C(=O)CSC1=O	.	.	-10.0	-1.0	i	1.11	99.2
C#CCOCCOCCOCCNc1nc(N2CCN(C(=O)[C@H]([C@@H](C)CC)n3cc([C@@H](N)CC(C)C)nn3)CC2)nc(N2CCN(C(=O)[C@H](Cc3ccc(O)cc3)n3cc([C@@H](N)CC(C)C)nn3)CC2)n1	.	.	6.6	.	i	0.73	98.9
Cn1cccc1CC(=O)N/N=C/c1ccc(Cl)cc1	.	.	.	.	i	1.17	104.5
CS(=O)(=O)Nc1ccccc1C(=O)N1CCN(c2ccccc2)CC1	3.6	137.1	-2.8	-2.0	.	.	102.8
Cc1cc(=O)[nH]c(SCC(=O)N2CCC(Cc3ccccc3)CC2)n1	.	.	0.2	.	i	1.01	97.5
CCOC(=O)N1CCN(Cc2nc(-c3cccc(Cl)c3)no2)CC1	.	.	-0.3	.	i	0.95	100.3
C=CCN(C(=O)CCC(=O)O)C1CC(=O)N(c2ccc(OC)cc2)C1=O (stereo not given)	58.1	95.3	5.5	-1.9	i	1.05	99.4
Cc1ccc(OCCCC(=O)N2CCOCC2)cc1	34.3	158.8	4.6	-2.7	i	0.87	97.2
O=C(CSCc1ccc([N+](=O)[O-])cc1)Nc1ccc(S(=O)(=O)N2CCCCCC2)cc1	.	.	3.3	0.3	i	0.84	108.4
COCCN1C(=O)N[C@@H](c2cccc(F)c2)C(C(=O)OC)=C1C	.	.	.	.	i	0.88	100.7
CCOC(=O)c1c(C)[nH]c(C=Nc2ccccc2)c1O	48.7	50.0	0.7	2.3	i	1.06	89.9
COc1ccc(CNC(=O)COc2ccc([N+](=O)[O-])cc2)cc1	27.8	104.1	3.9	-1.9	i	0.79	92.5
COc1ccc(Cc2nnc(SCC(=O)c3ccc(OC)cc3)o2)cc1	-41.9	181.6	2.0	-2.0	i	1.08	110.4
CCC(=O)Nc1ccc(SC#N)cc1C	8.7	38.0	0.3	-0.6	i	0.89	99.2
CC(C)CCCC(C)CCOC(=O)CN1CCCC1 (stereo not given)	.	.	.	.	i	0.99	97.5
Cc1cccc(NC(=O)C(=O)NCCc2c[nH]c3ccccc23)c1C	0.0	125.3	-4.8	.	i	1.03	106.1
Cc1nnc(SC(C)C(=O)Nc2ccc(S(=O)(=O)N3CCCCCC3)cc2)s1 (stereo not given)	.	.	6.2	-1.3	i	0.55	104.4
COc1ccc(O)c(C2=Nc3ccccc3N=C(c3cccs3)C2)c1	-40.7	107.3	-5.8	-0.3	i	0.92	105.2
C/C(Cn1cnc([N+](=O)[O-])n1)=N\NC(=O)c1ccc(O)cc1O	.	.	6.3	.	i	1.02	104.4
CCCCCCn1c(=O)c(-c2ccccc2)c(O)c2ccccc21	16.7	124.1	3.3	-1.7	i	0.98	113.7
C#Cc1ccc([C@H]2C=C(C(=O)OCC=C)O[C@@H](OCC)[C@@H]2CCCO)cc1	.	.	-0.9	.	i	1	101.7
CN(C)c1ccc(/C=N/NC(=O)c2ccc(NC(=O)c3ccccc3)cc2)cc1	.	.	.	.	i	0.84	105.9
CN=C1S/C(=C\c2ccc(Sc3ccc(Cl)cc3)o2)C(=O)N1C	2.7	43.5	-1.5	-3.0	i	0.943	53.2
CC(OC(=O)c1ccc(Cl)c(S(=O)(=O)N2CCc3ccccc32)c1)C(=O)Nc1ncc(Cl)cc1Cl (stereo not given)	.	.	-14.4	0.2	i	1.17	102.3
O=C(CSc1nc(-c2ccccc2)cs1)Nc1nccs1	.	.	0.3	-0.8	i	0.98	95.4
CCN(Cc1ccncc1)C(=O)c1cccc(S(=O)(=O)N2CCOCC2)c1	3.7	120.5	4.5	-1.2	i	0.98	110.5
COc1ccc(NC2c3ccccc3C(=O)N2c2cccnc2)cc1 (stereo not given)	.	.	.	.	i	1.03	96.2
COc1ccc(N2CCC(CNS(=O)(=O)c3cccc(C(F)(F)F)c3)C2)cc1 (stereo not given)	7.1	55.3	-3.4	-0.1	i	0.91	113.1
C=CCN1C(=O)CN=C1Nc1cccc(C)c1	.	.	-5.8	-2.4	i	0.99	107.4
O=C(COC(=O)c1ccncc1)c1ccc(Cl)c(Cl)c1	-83.3	127.5	-0.1	.	i	1.04	103.1
CC1=C2C(CCS2(=O)=O)CC2(C1)C(=O)OC(C)(C)OC2=O (stereo not given)	.	.	13.3	-2.5	i	1.02	53.1
O=C(Nc1nc(-c2cccnc2)cs1)c1ccccc1[N+](=O)[O-]	-35.7	82.2	-1.1	.	i	1.01	103.2
Cc1cc(Nc2ccc(Cl)cc2)n2nnnc2n1	6.2	107.6	-9.5	-0.7	.	.	99.4
COc1nc(Nc2ccc(OC)c(Cl)c2)nc(OC)n1	18.8	158.8	-13.0	0.4	i	0.75	110.1
COC(=O)c1ccc2c(=O)[nH]c(CSc3nc(C)cs3)nc2c1	36.4	143.0	-2.2	.	i	0.88	115.1
Cc1cccc(C)c1NC(=O)/C(C#N)=C/c1ccsc1	.	.	-3.1	-0.6	i	0.98	100.8
CC12CCC(O)CC1=CCC1C2CCC2(C)C1CCC21CCC(=O)O1 (stereo not given)	-3.9	153.8	-6.5	-0.2	i	1.1	105.9
O=C(OCC(=O)N1CCN(C(=O)c2ccco2)CC1)c1ccccc1OCc1ccc(Cl)cc1	-31.2	32.9	-10.2	-0.7	i	0.96	150.7
COC(=O)/C=c1\[nH]c2nnc(C)n2c1=O	.	.	.	.	i	0.92	100.2
O=C(O)CCC(=O)NNC(=O)COc1cccc(Cl)c1	.	.	2.3	.	i	1.06	101.2
Cc1nnc(Sc2nc3c(c(=O)[nH]c(=O)n3C)n2Cc2ccccc2)s1	.	.	.	.	i	0.78	98.6
O=C(c1ccc(S(=O)(=O)N2CCCCC2)cc1)N1CCN=C1SCc1cccnc1	.	.	-2.4	-1.2	i	0.87	101.2
CCOC(=O)CC(NC(C)=O)c1ccc([N+](=O)[O-])cc1 (stereo not given)	-34.6	74.8	-11.7	-0.2	i	0.97	110.5
CCN(CC)C(=O)C(Sc1ccccc1)c1ccccc1 (stereo not given)	34.2	64.0	-9.3	-1.2	i	0.96	116.2
Cc1nc(CC(=O)N/N=C/c2ccc(OCC(=O)O)cc2)cs1	.	.	.	.	i	0.9	97.8
Cc1cccc(NC(=O)CSc2ccc(-c3ccc4c(c3)OCO4)nn2)c1C	.	.	-1.1	-1.7	i	0.95	97.5
Cc1ccc(-n2c3c(cc(C(=O)NC4CCSC4=O)c2=O)C(=O)CCC3)cc1 (stereo not given)	-122.7	103.6	-1.7	-2.8	i	0.86	101.5
O=C(Oc1c(Cl)cc(Cl)c2cccnc12)c1cccs1	28.6	125.2	7.3	-1.3	i	0.99	93.5

# Next records:
mol	INS promoter inh	INS promoter inh cell count	PKD1 inh	GALR2 ag	HSV replic up	HSV replic up primary fold	RGS16-Gao HTS
CCC(=O)N=c1sc2cc([N+](=O)[O-])ccc2n1CCOC	32.1	79.5	4.8	-1.6	i	1.1	60.3
Fc1ccc(NC(=S)NCCN2CCOCC2)c(F)c1F	15.8	99.0	-0.3	.	i	1.06	103.9
CCOC(=O)CNC(=O)c1c(C)nn(-c2ccccc2)c1Cl	10.8	109.2	-4.2	0.7	i	1	102.0
Cc1cccc(-n2nnnc2SCC(=O)NCC2CCCO2)c1 (stereo not given)	.	.	.	.	i	0.87	106.8
CC(C)(C)OC(=O)C(C)(C)O/N=C(\C(=O)O)c1csc(N)n1	-27.8	145.1	-1.4	.	i	1.1	108.1
Cn1c(N)c(C(=O)COC(=O)C2CC(=O)N(Cc3ccccc3)C2)c(=O)n(C)c1=O (stereo not given)	.	.	-3.2	.	i	1.01	101.7
C=CCn1c(C)csc1=Nc1ccccc1C	-25.0	38.3	-10.4	.	i	1.05	110.0
Cc1cccc(N2CCN(C(=O)C3CCN(S(=O)(=O)c4cnc[nH]4)CC3)CC2)c1C	.	.	-7.7	-0.4	i	1.05	101.5
N#Cc1ccc(OCC(O)CS(=O)(=O)c2ccccc2)cc1 (stereo not given)	-14.3	90.8	-0.4	.	i	1.05	98.2
Cc1cc2cc(C)c(NCCNC(=O)c3ccccc3Cl)nc2cc1C	-33.3	113.2	-3.4	.	i	0.99	98.3
Cc1nc(-c2ccc(Cl)cc2)sc1C1(C)CC(c2ccc(C#N)cc2)=NO1 (stereo not given)	.	.	.	.	i	0.74	83.7
Cc1onc(-c2ccccc2)c1C(=O)N=C(N)c1ccc(C(F)(F)F)cc1	.	.	.	.	i	1.07	99.4
COc1ccc(C(=O)COC(=O)COc2ccc(C)c(C)c2)cc1	0.0	116.2	5.3	-0.7	i	0.96	104.2
CCS(=O)(=O)N1CCN(Cc2ccccc2OC)CC1	-85.7	159.1	-2.6	-2.5	i	0.9	100.8
CC(=O)Nc1ncc(Cc2ccc(Cl)cc2Cl)s1	5.0	121.5	1.9	.	i	0.98	98.8
CC1CN(Cc2ccc(C#N)cc2Cl)CC(C)O1 (stereo not given)	.	.	-11.0	-1.2	i	0.99	104.7
Cc1ccc(/C=N/NC(=O)Cc2c[nH]c3ccccc23)c(C)c1	28.9	82.5	-6.8	-0.9	.	.	106.2
O=C(CCSCCC(=O)NCc1cccs1)NCc1cccs1	26.9	79.3	-7.5	-0.9	i	0.97	103.5
CCn1c(SC(=O)NC2CCCCC2)nnc1-c1cccs1	.	.	-5.2	-1.8	i	0.94	95.2
CC(=O)CCc1c(C)c2cc(C)ccc2[nH]c1=O	70.0*	25.4*	5.9	-1.1	i	0.93	99.3
O=C(O)CCc1ccc(-c2ccc(Br)cc2)n1NC(=O)c1ccc([N+](=O)[O-])cc1	.	.	.	.	i	1.07	97.1
CCOC(=O)c1nnn(CC(=O)NC(=O)Nc2ccccc2)c1C(=O)OCC	-18.8	82.3	-2.1	.	i	0.85	98.8
CCn1c(=O)c([N+](=O)[O-])c(NCCc2ccccc2)c2ccccc21	4.3	110.8	-12.3	-0.6	i	0.913	101.5
CCOC(=O)CSc1nc(-c2ccccc2)nc2ccc(F)cc12	27.3	58.9	20.9	-0.8	i	0.95	103.0
COc1ccc(NC(=O)c2cc3c(-c4ccc(OC)c(OC)c4)nn(C)c3s2)cc1OC	.	.	-2.3	0.2	i	0.58	98.0

# 2 neighbouring compounds already listed:
mol	INS promoter inh	INS promoter inh cell count	PKD1 inh	GALR2 ag	HSV replic up	HSV replic up primary fold	RGS16-Gao HTS
COc1ccc(N2CCC(CNS(=O)(=O)c3cccc(C(F)(F)F)c3)C2)cc1 (stereo not given)	7.1	55.3	-3.4	-0.1	i	0.91	113.1
C=CCN1C(=O)CN=C1Nc1cccc(C)c1	.	.	-5.8	-2.4	i	0.99	107.4

# Part of the list above in another layout:
# Every second line gives: INS promoter inh | INS promoter inh cell count | PKD1 inh | GALR2 ag | HSV replic up | HSV replic up primary fold | RGS16-Gao HTS
CCOC(=O)CNC(=O)c1c(C)nn(-c2ccccc2)c1Cl
  10.8 | 109.2 | -4.2 | 0.7 | i | 1 | 102.0
Cc1cccc(-n2nnnc2SCC(=O)NCC2CCCO2)c1 (stereo not given)
  . | . | . | . | i | 0.87 | 106.8

# New compounds follow
mol	INS promoter inh	INS promoter inh cell count	PKD1 inh	GALR2 ag	HSV replic up	HSV replic up primary fold	RGS16-Gao HTS
COc1ccc(C(=O)/C=C/c2ccc(OC3CSC3)cc2)cc1	-21.1	92.0	-7.3	-1.3	i	0.96	102.5
COc1ccc(N2CCN(C(=O)CN(C)S(=O)(=O)c3cnc[nH]3)CC2)cc1	22.2	128.8	-11.7	-1.2	i	0.95	92.4
C=CCOc1c(Br)cc(/C=N/NC(=O)Cc2ccc(C(F)(F)F)cc2[N+](=O)[O-])cc1OC	3.5	105.5	-3.0	0.8	i	0.75	121.0
CNc1oc(Cc2ccccc2)nc1S(=O)(=O)c1ccccc1	41.2	118.0	3.3	-1.1	.	.	76.2
Cn1nc(C(F)(F)F)c(-c2cccc(C(F)(F)F)c2)c1NC(=O)Nc1ccc(F)cc1	.	.	.	.	i	0.93	95.7
